High-throughput results as filed in PubChem BioAssay.
D2 potentiator: positive allosteric modulators of human D2 dopamine receptor | P14416 | DiscoveRx D2 beta-arrestin cells, luminescence, 90 min; 100% = 57 uM dopamine signal | potentiation, % (no concentration beside the values) | 360,000 compounds, 0.23% hits | AID 624464; active = potentiation of 50% or more; inconclusive = 30% to 50%; inactive = 30% or less;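 also: compound concentration not given in the record; tested on top of an EC20 dose of dopamine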
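PathHunter beta-arrestin assay in DiscoveRx D2 cells. Compounds were added with an EC20 of dopamine (50 nM final) for 90 min at 37 deg C. Luminescence was read 1 h after detection reagent, with 57 uM dopamine as the EC100 control.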
TRPML1 ag: activates the human TRPML1 channel. Q9GZU1. TRPML1-expressing cells, Ca2+ dye fluorescence, FDSS; host cell line not named in the record; reference of the full effect not given here. activation, % (test concentration not listed). 410,000 compounds, 0.12% hits. AID 624414; in the data active = activation above about 50%; inconclusive = about 30% to 50%; inactive = below about 30%; also: 0% is about no effect; the text of the record puts the active cut at 80%
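In this qHTS format, compounds were pin-transferred onto Ca8-dye-loaded TRPML1-DL cells induced with Tet overnight, and intracellular Ca2+ fluorescence was recorded kinetically for 110 s after a 10 s baseline. A subsequent 4uM final 54-4 (EC80) addition followed by a second 110 s read served as the antagonist phase.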
Six1-Eya2 blk: Six1/Eya2 interaction inhibition; Q15475+O00167; AlphaScreen GST-Six1/His-Eya2 binding, biochemical; hits give low values; control for the full effect not named in the record; activity change, % (no concentration beside the values); 360,000 compounds, 0.56% hits; AID 651725; in the data active = activity change below about -65%; inconclusive = about -30% to -65%; inactive = above about -30%; also: % is scaled to controls: 0 for no effect and ±100 for the full control effect
Target sequence (O00167 whole entry, looked up): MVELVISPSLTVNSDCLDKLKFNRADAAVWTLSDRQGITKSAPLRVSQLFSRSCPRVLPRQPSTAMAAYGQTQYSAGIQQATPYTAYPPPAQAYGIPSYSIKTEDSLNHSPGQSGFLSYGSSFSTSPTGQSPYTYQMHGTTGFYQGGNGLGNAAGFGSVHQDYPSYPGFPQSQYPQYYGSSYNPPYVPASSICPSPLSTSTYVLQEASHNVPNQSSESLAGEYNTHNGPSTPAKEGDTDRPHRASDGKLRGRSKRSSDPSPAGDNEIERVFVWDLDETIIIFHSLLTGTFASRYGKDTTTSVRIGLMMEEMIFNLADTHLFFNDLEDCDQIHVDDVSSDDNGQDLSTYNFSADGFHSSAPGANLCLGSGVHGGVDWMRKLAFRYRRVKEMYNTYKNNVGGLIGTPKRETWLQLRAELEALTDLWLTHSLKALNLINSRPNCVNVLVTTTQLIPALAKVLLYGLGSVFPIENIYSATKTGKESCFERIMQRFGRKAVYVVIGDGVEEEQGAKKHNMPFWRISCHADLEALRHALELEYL
Target sequence (Q15475 whole entry, looked up): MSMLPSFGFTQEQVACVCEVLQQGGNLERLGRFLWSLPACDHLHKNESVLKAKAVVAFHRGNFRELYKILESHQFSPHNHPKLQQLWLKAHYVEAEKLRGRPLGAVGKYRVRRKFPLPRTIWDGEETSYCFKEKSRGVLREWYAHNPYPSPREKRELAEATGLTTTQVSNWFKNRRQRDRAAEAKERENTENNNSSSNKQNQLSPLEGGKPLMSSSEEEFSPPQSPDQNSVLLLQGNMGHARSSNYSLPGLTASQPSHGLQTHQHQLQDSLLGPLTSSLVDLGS
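Six1/Eya2 binding was read as AlphaScreen signal after compounds were pinned into GST-Six1 plus His-tagged Eya2 (5X stock 250/500 nM) in pH 8.0 Tris/NaCl/TCEP buffer, beads added, then incubated 1 h, 37 C, dark.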
D2 agonist: human D2 receptor agonism in beta-arrestin assay; P14416; 360,000 compounds, 0.084% hits; activation, % (test concentration not listed); DiscoveRx PathHunter D2 beta-arrestin, luminescence, 90 min; 100% = 57 uM dopamine signal; in the data active = activation above about 40%; inconclusive = about 15% to 40%; inactive = below about 15%; also: compound concentration not given in the record; the text of the record calls up to 30% inactive
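Agonist mode: compounds alone added to overnight-plated D2 PathHunter cells for 90 min at 37 C, with 57 uM final dopamine (EC100) defining full response. Beta-arrestin recruitment detected by chemiluminescent reagent, read after 1 h at ambient temperature.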
CtBP-E1A blk: CtBP/E1A binding inhibition; AlphaScreen GST-E1A/His-CtBP binding, 1536-well; hits give low values; control for the full effect not named in the record; activity change, % (no concentration beside the values); 340,000 compounds, 0.49% hits; in the data active means activity change below about -65%; inconclusive means about -30% to -65%; inactive means above about -30%; also: % is scaled to controls: 0 for no effect and ±100 for the full control effect
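AlphaScreen with 125 nM GST-E1A and 125 nM His-CtBP (5X stocks) in Tris pH 8.0, 300 mM NaCl, BSA, Tween 20, TCEP. Compounds preincubated 2 h at 37 deg C, then glutathione donor/nickel acceptor beads added for 1 h at 37 deg C in dark.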
PINK1 expr mod: changes PINK1 expression; AID 624263; Potency, µM (doses to about 76.6 µM), for inactives: at the top dose activation (PINK1 increase), most hits filed as activators; 410,000 compounds, 0.2% hits; PINK1 immunofluorescence, high-content cytometry, 24 h; active = well fitted activation curve with a large enough effect; inconclusive = small, poorly fitted or top-dose-only effect; inactive = flat fitted curve, though single readings scatter; cell line not stated here;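 also: potency is read from the fitted curve at half-maximal effect; % of control where 0% means no effect; nearly all actives have a fitted effect of over 65% in size; a mitochondrial uncoupler was the plate control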
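Compound titrations (5 concentrations, 24 h) on a stable cell line; DMSO and CCCP controls. Endpoint: fixed-cell PINK1 immunofluorescence with mitochondrial, cell and nuclear markers, scanned by microplate cytometer.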
* marks the source's active call; other numbers are inactive results; ? = inconclusive; . = not tested or not shown; & = joins results of further samples; [ ] = dose if it differs, or a comment.

Values run as follows: PINK1 expr mod	Six1-Eya2 blk	TRPML1 ag	CtBP-E1A blk	D2 potentiator	D2 agonist
CCOC(=O)C1CCN(C(=O)c2ccccc2NS(=O)(=O)c2ccccc2)CC1
→ -1.2%	0	0.2	3	16	-0.5
CC(=O)Nc1cc2cc(NS(=O)(=O)c3ccc(Cl)cc3)ccc2oc1=O
→ 0.6%	3	0.0	4	1	2.6
O=S(=O)(c1ccc(OC(F)(F)F)cc1)N1CCCC(c2ccccc2)C1 (stereo not given)
→ 3.2%	7	1.2	.	-11	-1.6
COc1ccccc1-c1c(C(F)(F)F)oc2cc(OCC(=O)Nc3ccccc3C(F)(F)F)ccc2c1=O
→ 13%	3	2.8	0	3	2.1
COc1cc(-c2noc(C)c2/C=C/c2ccc(N)cc2)cc(OC)c1OC
→ 9.4%	7	0.3&-1.0	.	0	2.0
CCOC(=O)C1CN(S(=O)(=O)c2ccc(Cl)cc2)c2cc(S(=O)(=O)CC)ccc2O1 (stereo not given)
→ -0.6%	7	0.3	0	-5	0.6
CC(c1ccccc1)n1ccnc1CO (stereo not given)
→ -0.3%	0	-0.1	4	-10	-5.2
O=S(=O)(/C=C/c1ccccc1)Nc1ccc(F)cc1
→ 3.7%	-5	-0.9	-15	-5	2.6
Cn1c(=O)c2sccc2n(CC(=O)NCCC2=CCCCC2)c1=O
→ 1.0%	6	1.7	6	-17	-2.4
COc1ccc(CCNC(=O)CSc2ccc(-c3ccccc3)nn2)cc1OC
→ -2.1%[38.3 µM]	-3	-0.1	-5	-6	-0.8
O=C(c1ccc([N+](=O)[O-])o1)N(Cc1nnc(-c2ccccc2Cl)o1)C1CC1
→ -0.5%	-1	-0.1	-11	1	?
CCOC(=O)C1CCCN(C(=O)CN2C(=O)c3ccccc3C2=O)C1 (stereo not given)
→ 2.3%	1	-0.8	-2	-3	-2.6
CCc1cc2c(SCC(=O)c3cccs3)ncnc2s1
→ 1.6%	13	3.6	16	-17	-3.5
O=C(O)c1ccccc1S(=O)(=O)c1ccccc1CO
→ 3.4%	0	1.1	2	-9	-3.9
O=C(O)c1ccccc1C(=O)Nc1ccc(Oc2ccc3ccccc3c2)cc1
→ 3.0%	-5	-0.1	-14	0	4.9
CC(C)Cc1nc2sc3c(=O)n(N)cnc3c2c2c1COC(C)(C)C2
→ 0.5%	-2	-0.8	.	2	1.5
COc1ccc(C2CC(=O)C3=C(C2)Nc2ccccc2NC3c2coc3ccccc3c2=O)cc1OC (stereo not given)
→ 0.1%	-2	-0.4	-15	-34	-4.6
COc1ccc(Cl)cc1Cn1c(C)c(C(=O)NCc2cccc(C(F)(F)F)c2)sc1=O
→ 0.0%	-2	-0.2	4	-2	7.4
COc1ccc(S(=O)(=O)N2CCCCCC2)cc1N(C)S(=O)(=O)c1ccc(Cl)cc1
→ -4.9%[38.3 µM]	-3	0.6	8	1	0.5
O=C(Nc1ccccc1N1CCOCC1)c1cccc2c(Br)cccc12
→ -0.6%	19	0.9	.	-2	0.0
O=C(O)CC1(CC(=O)Nc2ccccc2N2CCOCC2)CCCC1
→ 0.0%	4	-0.4	6	0	3.0
Cc1ccc(S(=O)(=O)Nc2ccc3c(c2)C(=O)N([C@@H](C)CO)C[C@@H](C)[C@@H](CN(C)C(=O)NC(C)C)OCCCC[C@H](C)O3)cc1
→ 3.6%	4	-0.2	5	-13	-4.7
O=S(=O)(Nc1ccc(Nc2ccccc2)cc1)c1ccc(F)cc1
→ 3.5%	-9	2.7	-25	2	13
Cc1cc2cc3c(C)cc(=O)oc3c(C)c2o1
→ 2.1%	6	2.0	.	-7	-1.0
COC(=O)CSc1nc(SCc2ccc(C)cc2)nc2c1CCCC2
→ 3.7%	39	3.0	13	-4	-4.0
O=C(O)CCNS(=O)(=O)c1ccc2c(c1)OCCCO2
→ -0.6%	7	0.1	-1	-5	-0.6
Cc1nn2cnnc2c(C)c1Cc1c(F)cccc1Cl
→ 0.8%	-2	-1.6	10	-8	-1.1
CN(Cc1cccnc1)C(=O)c1cc(COc2ccc3ncccc3c2)on1
→ 0.2%	2	-0.1	-1	0	-3.6
Nc1nc(NCCOCCO)nc(NC2CCCCC2)c1[N+](=O)[O-]
→ 4.6%	-12	-0.2	-4	-8	4.8
CCOc1ccc(N2C(=O)S/C(=C\c3cccn3C)C2=O)cc1
→ ?	-1	1.2	-7	-1	1.1
COCCn1c(COC)nc2ccccc21
→ -0.4%	1	-0.7	0	0	-0.1
Cc1ccc(CNCC(O)(c2ccccc2)c2ccccc2)cc1
→ 7.0%	21	1.8	.	-15	-3.2
COC(=O)c1ccccc1SCc1csc(C)n1
→ 3.0%	2	0.5	4	-2	-0.1
CCc1nc(Nc2cccc(F)c2)c2oc3ccccc3c2n1
→ 5.4%	6	3.2	3	0	3.4
O=C1CC(N(CCc2ccccc2)C(=S)Nc2ccccc2)C(=O)N1c1ccc(F)cc1 (stereo not given)
→ ?	-2	1.1	-16	-17	-2.6
CCCCC(=O)Nc1ccc(C(=O)NCCCn2ccnc2)cc1
→ 1.3%[38.3 µM]	1	0.5	3	-8	1.7
COc1ccc(C(=O)Nc2ccccc2C(=O)NC(Cc2ccc(O)cc2)C(=O)NNC(=O)c2ccccc2Cl)cc1 (stereo not given)
→ -0.4%	3	1.8	-2	3	-3.7
Cc1ccc(C(=O)OCc2cc(=O)n3c(C)csc3n2)s1
→ -0.2%	-2	-0.6	1	0	-2.2
c1ccc(-n2nnnc2-n2ccnc2)cc1
→ 0.1%	-4	-0.1	2	-9	-2.1
Cc1cccc(NC(=O)CN2C(=O)NC(Cc3ccccc3)C2=O)c1 (stereo not given)
→ 0.1%	13	-0.8	13	-9	-1.7
O=C(c1cccc2nc3ccccc3nc12)N1CCOCC1
→ 0.6%	-7	0.1	0	-3	-1.4
Nc1ccc(-c2ccc(C(=O)O)s2)cn1
→ 3.1%	0	-0.1	.	-7	-4.9
O=C(/C=C/N1CCOCC1)c1coc2ccccc12
→ 1.1%	4	0.1	0	-13	0.0
O=c1[nH]c(CN2CCCC2)nc2sc3c(c12)CCC3
→ 0.5%	0	-0.2	0	-6	-4.5
Cc1cc(C(=O)N[C@@H](c2ccccc2)[C@]2(C)C[C@H]2[C@@H](C)C(=O)Nc2ccc3ccccc3c2)no1
→ 2.4%	1	0.9	-2	-16	-0.2
CCN(CCO)Cc1csc2cccc(Br)c12
→ -1.5%	5	-1.3	15	-14	-1.9
Cc1ccc(S(=O)(=O)N(CC(O)CN2C(=O)NC(C)(C)C2=O)c2cccc(C)c2)cc1 (stereo not given)
→ -0.7%	3	1.1	5	-2	0.3
COc1cc(NC(=O)CSc2ccc3c(c2)OCCO3)cc(OC)c1OC
→ -0.8%	-4	1.3	7	-13	-0.8
O=C1CCC(=O)N1CC(=O)N(c1ccccc1)c1ccccc1
→ 0.6%	-6	-0.1	17	0	2.7
O=C(Nc1ccc(F)cc1)c1ccc(S(=O)(=O)N2CCOCC2)o1
→ 0.7%	1	0.3	6	-7	0.9
Cc1cccc(N/N=C/c2ccc(O)c(O)c2O)c1
→ 1.2%	-2	0.5	-5	8	?
COc1cc(C(=O)NCc2nnc(SCC(=O)Nc3ccc4c(c3)OCO4)o2)cc(OC)c1OC
→ 0.9%	-1	0.5	1	-9	-3.3
CSc1nc(C)nc2c1c(=O)n(C)c(=O)n2C
→ 1.2%	5	-0.5	2	-5	-3.1
C1CCN(CC2CCCCN2)CC1 (stereo not given)
→ 0.7%	0	0.4	-3	-2	0.4
CC1(C)CCCC2(C)C(OCCO)=CC(=O)C=C12 (stereo not given)
→ -0.5%	12	0.3	-13	-14	-7.4
CCC(=O)Nc1cccc(NC(=O)c2cccnc2)c1
→ -0.5%	1	0.5	-2	-15	-1.3
CC(C)CCNC(=O)Cc1c(C(=O)O)[nH]c2ccc(Cl)cc12
→ -0.4%	-7	-0.1	-2	-5	-0.6
CCOC(=O)C1CCN(C(=O)c2ccccc2NC(C)=O)CC1
→ 0.6%	-1	1.0	1	11	-3.1
O=c1c(-c2ccc(Cl)cc2)[n+]([O-])c2ccccc2n1OCc1nc2ccccc2[nH]1
→ 1.5%	-28	-0.7	-2	-8	-4.1
COc1ccc(OC(=O)c2cnn(-c3ccccc3)c2C)cc1
→ 4.2%	30	4.4	15	2	-3.2

Later entries:
Values run as follows: PINK1 expr mod	Six1-Eya2 blk	TRPML1 ag	CtBP-E1A blk	D2 potentiator	D2 agonist
O=C(CCl)N1CCN(S(=O)(=O)c2ccc3c(c2)OCCCO3)CC1
→ -1.5%	5	0.8	-5	-2	1.1
Cc1c(CC(=O)NCCCC(=O)O)c(=O)oc2cc3oc4c(c3cc12)CCCC4
→ 1.1%	3	-1.5	0	-9	-4.0
O=C(COC(=O)/C=C/c1ccc([N+](=O)[O-])cc1)NCC1CCCO1 (stereo not given)
→ 0.1%	7	2.3	-13	11	7.9
COc1ccccc1/C=C/C(=O)NCC(=O)N/N=C/c1ccccc1
→ -0.2%	4	1.5	-11	-10	-3.7
CC(C)C(NC(=O)c1ccco1)C(=O)OCC(=O)NCCc1ccccc1 (stereo not given)
→ 1.5%	13	0.1	.	0	0.0
CN(C)CCSc1nc(O)c(-c2ccccc2)c(=O)n1-c1ccccc1
→ -2.0%	0	-0.2	-1	8	-5.4
CS(=O)(=O)N1CCN(CC2CC3C=CC2C3)CC1 (stereo not given)
→ 2.8%[38.3 µM]	2	0.0	8	-10	-3.3
Cc1cc(Nc2c(C)cccc2C)n2nc(C)nc2n1
→ -3.4%	1	1.0	-3	-5	-3.2
CCCn1c(SCC(=O)N2CCN(C(=O)c3ccco3)CC2)nc2ccccc2c1=O
→ 0.9%	6	2.1	0	5	-2.4

Look-ups from above.
CCCn1c(SCC(=O)N2CCN(C(=O)c3ccco3)CC2)nc2ccccc2c1=O in Six1-Eya2 blk: 6
CS(=O)(=O)N1CCN(CC2CC3C=CC2C3)CC1 (stereo not given) in PINK1 expr mod: 2.8%[38.3 µM]
